# Marburg entry inh: blocks Marburg virus binding to or entry into cells; Marburg virus pseudotyped entry inhibition, cell reporter; control for the full effect not named in the record; about a third of the inactives were read at about 46 µM; Potency, µM (doses to about 37.8 µM), without a hit: top-dose activity change, negative = inhibition, usual class: inhibitors; 300,000 tested, 1.8% active; AID 540276; active = well fitted inhibition curve with a large enough effect; inconclusive = small, poorly fitted or top-dose-only effect, or effect the other way; inactive = flat fitted curve, though single readings scatter; tested in HEK293 cells; about a fifth of its hits are not listed in these tables; note: % is set by controls: 0 for no effect and ±100 for the full control effect; luciferase read-out
# SARS PLpro yeast: blocks SARS-CoV papain-like protease in a yeast assay; S. cerevisiae expressing SARS-CoV PLpro, growth rescue; control for the full effect not named in the record; Potency, µM (titrated, usually from 32.9 µM), for inactives: at the highest dose activity, positive = growth rescue; 330,000 tested, 0.19% active; note: 0% is about no effect; nearly all actives have a fitted effect of over 55% in size; growth read by luminescence after 48 h
# 2A StopGo: lowers the luciferase signal of an FMDV 2A StopGo reporter. Potency, µM (highest dose often 57.9 µM), inactives show top-dose signal change, negative = less light. human cells with a luciferase reporter of 2A StopGo recoding; control for the full effect not named in the record. 410,000 tested, 1.2% active; active = well fitted falling curve with a large enough effect; inconclusive = small, poorly fitted or top-dose-only effect; inactive = no such curve, though single readings can be large or run the other way; tested in HEK293T cells; note: % is set by controls: 0 for no effect and ±100 for the full control effect; nearly all actives have a fitted effect of over 45% in size; luciferase light after 4 h
# Cruzain inh Det: blocks cruzain activity in presence of Triton detergent | P25779 | purified cruzain, Z-FR-AMC fluorescence, 0.01% Triton | Potency, µM, for inactives: max response, negative = inhibition, hits mostly inhibitors | 200,000 tested, 0.43% active | AID 1478; active = well fitted curve in the direction sought with a large enough effect; inconclusive = small, poorly fitted or top-dose-only effect, or another doubt; inactive = no such curve, though single readings can be large; an effect the other way counts as inactive or inconclusive;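 note: plate controls were neutral wells for no effect and buffer without enzyme for full effect; nearly all actives have a fitted effect of over 40% in size; top concentration of the series not given in the record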
# Target sequence (P25779 123-467 limits assumed): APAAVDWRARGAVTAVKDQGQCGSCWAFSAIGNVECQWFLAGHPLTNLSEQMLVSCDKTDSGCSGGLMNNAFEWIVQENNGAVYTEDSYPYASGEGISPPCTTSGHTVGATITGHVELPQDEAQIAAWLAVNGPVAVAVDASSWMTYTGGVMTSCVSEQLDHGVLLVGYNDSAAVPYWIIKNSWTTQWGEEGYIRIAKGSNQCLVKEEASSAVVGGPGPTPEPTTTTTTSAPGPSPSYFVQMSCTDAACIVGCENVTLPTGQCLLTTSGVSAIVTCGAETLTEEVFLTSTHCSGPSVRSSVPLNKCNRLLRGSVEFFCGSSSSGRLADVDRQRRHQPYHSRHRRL
#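 Z-FR-AMC hydrolysis (2 uM substrate) by cruzain (1.5 nM) monitored kinetically at ex 360/em 450 nm after 15 min room-temperature compound exposure; 0.01% Triton X-100, pH 5.5, 5 mM DTT.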
# RE007 growth inh: less growth of the S. pombe RE007 Vpr strain; 360,000 tested, 0.21% active; Potency, µM (titrated, usually from 92.2 µM), for the others: at the highest dose activity change, negative = less growth; S. pombe RE007 Vpr strain, BacTiter-Glo ATP luminescence, 24 h; control for the full effect not named in the record; active = well fitted falling curve with a large enough effect; inconclusive = small, poorly fitted or top-dose-only effect; inactive = no such curve, though single readings can be large or run the other way;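 note: % is set by controls: 0 for no effect and ±100 for the full control effect; nearly all actives have a fitted effect of over 50% in size; the assay follows cell death caused by Vpr and the record does not say whether a fall means rescue or toxicity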
#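 Fission yeast strain RE007, carrying one chromosomally integrated HIV-1 vpr copy, was seeded at OD 0.01 in PMG+AL medium with 23 nL pinned compound. After 24 h at 30 °C and 99% humidity, viability was read by BacTiter-Glo luminescence.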
# NS1 inh: influenza NS1 inhibition | S. cerevisiae slowed by influenza A NS1, growth recovery by OD600 | Potency, µM (series often up to 46.1 µM), for the others: at the top dose activity, positive = more growth | 270,000 tested, 0.4% active; note: actives are rising curves; nearly all actives have a fitted effect of over 50% in size
#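 Recovery from NS1-induced slow growth read by OD600 in budding yeast switched to galactose assay medium (pH 6.0, -URA) at 1:100 dilution. Compound 23 nl per well; the matching strain lacking NS1 serves as control.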
# Cruzain noTriton: blocks cruzain activity in detergent-free assay; Potency, µM, without a hit: max response, negative = inhibition, actives largely listed as inhibitors; P25779; AID 1476; 200,000 tested, 2.3% active; purified cruzain, Z-FR-AMC fluorescence, no detergent; active = well fitted curve in the direction sought with a large enough effect; inconclusive = small, poorly fitted or top-dose-only effect, or another doubt; inactive = no such curve, though single readings can be large; an effect the other way counts as inactive or inconclusive;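 note: plate controls were enzyme without inhibitor for no effect and buffer without enzyme for full effect; nearly all actives have a fitted effect of over 40% in size; top concentration of the series not given in the record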
#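 Purified cruzain at 1.5 nM, pre-incubated 15 min with compound at room temperature in 100 mM sodium acetate pH 5.5, 5 mM DTT, 0.00005% Triton X-100. Reaction started with 2 uM Z-FR-AMC; AMC fluorescence increase over 60 s gives rate.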
# LASV entry inh: blocks Lassa virus binding to or entry into cells; Lassa virus pseudotype entry inhibition, cell reporter; control for the full effect not named in the record; Potency, µM (doses to about 37.9 µM), for the others: top-dose activity change, negative = inhibition, usual class: inhibitors; 300,000 tested, 1.2% active; active means well fitted inhibition curve with a large enough effect; inconclusive means small, poorly fitted or top-dose-only effect, or effect the other way; inactive means flat fitted curve, though single readings scatter; tested in HEK293 cells; note: % is set by controls: 0 for no effect and ±100 for the full control effect; nearly all actives have a fitted effect of over 50% in size; luciferase read-out
# An asterisk follows results filed as active; ? = inconclusive; nt = not tested or not shown; [ ] = dose if it differs, or a comment. Unless noted, calls come from the whole dose curve; as a rule, active means well fitted rising curve with a large enough effect; inconclusive means small, poorly fitted or top-dose-only effect; inactive means no such curve, though single readings can be large or run the other way. Potency is the fitted concentration of half-maximal effect.
SMILES,Marburg entry inh,SARS PLpro yeast,2A StopGo,Cruzain inh Det,RE007 growth inh,NS1 inh,Cruzain noTriton,LASV entry inh
Cc1ccccc1C(=O)NCC(=O)OCCOc1ccc(C(C)C)c(C)c1,-4%,-29%,-22%,nt,5%,nt,nt,5%
CC(=O)NCc1ccc(-c2csc(NC(=O)CCc3nc4ccccc4c(=O)[nH]3)n2)s1,-6%,-1%,-10%,nt,-10%,nt,nt,2%
CCOc1ccc2oc(-c3ccccc3)c(C(=O)N3CCN(C)CC3)c2c1,3%,0%,7%,-3.7%,-3%,-4%,10%,-21%
Cc1csc(NC(=O)c2ccc(Cl)nc2)n1,nt,0%,16%,nt,-14%,-5%,nt,nt
COc1ccc(C(=O)CCC(=O)O)cc1,6%,3%,-28%,7.2%,12%,-7%,2%,nt
C=CCC1c2cccc(C(=O)O)c2C(=O)N1c1ccc(F)cc1 (configuration not stated),-7%,nt,3%,4.4%,6%,-97%,0%,-19%
Cc1cccc(OCCC(=O)Nc2ccccc2C(N)=O)c1,4%[46.1 µM],10%,16%,nt,15%,4%,nt,-11%
CCCCN(CC)CCNc1c(NC2CCN(C(=O)OCC)CC2)c(=O)c1=O,nt,5%,-19%,1.6%,8%,0%,2%,nt
CCCCCCCCCCCC(=O)N1CC(=O)NC(=O)C1,14%[46.1 µM],0%,6%,nt,6%,2%,nt,-1%
CCSc1ccccc1C(=O)Nc1nncs1,-6%,3%,-4%,0.2%,-22%,-12%,-2%,-12%
Cc1onc(-c2ccccc2)c1C(=O)NCCc1ccc(S(N)(=O)=O)cc1,15%,10%,2%,3.3%,-3%,2%,0%,14%
CCOc1ccc(C2C(C#N)=C(C)NC3=C2C(=O)c2ccccc23)cc1 (configuration not stated),?,-2%,?,-6.8%,20%,11%,-17%,?
c1ccc2c(CNC3CCCCC3)c[nH]c2c1,?,-2%,-27%,-2.6%,-14%,-8%,-12%,-5%
Cc1ccccc1OCC(O)Cn1c(NCc2ccco2)nc2c1c(=O)n(C)c(=O)n2C (configuration not stated),?,0%,nt,1.9%,13%,-12%,?,0%
O=[N+]([O-])c1cc([N+](=O)[O-])c(Oc2ccc(F)cc2F)cc1NN1CCCCC1,nt,-3%,-20%,nt,-10%,-9%,nt,nt
C=CCn1c(-c2cccn(Cc3ccc(Cl)cc3Cl)c2=O)n[nH]c1=S,-10%,-4%,-16%,-2.6%,-1%,7%,-2%,-9%
C=CCNC(=O)CSc1nc2cc(C(=O)OCC)ccc2n1CC,2%,2%,-8%,-0.8%,4%,0%,-17%,-10%
Cc1ccc(NC(=O)CCS(=O)(=O)c2ccccc2)cc1S(=O)(=O)N1CCCCCC1,?,2%,-15%,nt,0%,nt,nt,?
Cc1ccc(NC(=S)N(Cc2ccccc2)Cc2cccs2)c(C)c1,19%[46.1 µM],0%,-14%,nt,6%,nt,nt,7%
COc1ccc(NC(=O)c2c(Nc3ccccc3)sc(C(=O)c3ccc(F)cc3)c2N)cc1,6.3µM*,-10%,?,-7.9%,1%,-2%,10µM*,13µM*
COc1ccc(Cl)cc1NC(=O)c1cc(S(=O)(=O)N2CCC(C)CC2)cn1C,nt,nt,-4%,-1.0%,nt,nt,-19%,0%[46.1 µM]
CN(C)/C=N/C(=S)Nc1cc(Cl)cc(Cl)c1,-2%[46.1 µM],-1%,-6%,nt,-8%,7%,nt,-27%
CCC(Oc1ccccc1)C(=O)Nc1ccc(S(=O)(=O)NCC2CCCO2)cc1 (configuration not stated),-16%,8%,-6%,1.8%,3%,-13%,5%,-16%
CCOC(=O)N1CCN=C1SCc1ccc(Cl)c(Cl)c1,2%,0%,-30%,nt,-3%,nt,nt,0%
O=C(O)c1ccccc1CSc1ccccn1,-15%[46.1 µM],-3%,9%,nt,-4%,nt,nt,1%

# Later entries:
SMILES,Marburg entry inh,SARS PLpro yeast,2A StopGo,Cruzain inh Det,RE007 growth inh,NS1 inh,Cruzain noTriton,LASV entry inh
O=C1c2cnccc2CN1Cc1ccccc1,2%,-4%,10%,4.0%,11%,1%,9%,6%
CCN(CC)CC(=O)Nc1ccc(-c2ccc(NC(=O)CN(CC)CC)c(OC)c2)cc1OC,?,-1%,0%,nt,-20%,5%,nt,5%
Cc1ccc(-c2nc3scc(CCNS(=O)(=O)c4c(C)noc4C)n3n2)cc1,nt,nt,20%,3.7%,nt,nt,0%,0%[46.1 µM]
NC(=O)C1(N2CCCCC2)CCN(C(=O)c2ccc(C#Cc3ccccc3)o2)CC1,?,-3%,-27%,-2.8%,-2%,-23%,-11%,?
COc1ccc(CNS(=O)(=O)c2ccc3c(c2)N(C)CCO3)cc1,nt,-3%,15%,nt,10%,-1%,nt,nt
Cc1sc2nc3n(c(=O)c2c1C)Cc1ccccc1-3,0%,-5%,nt,-1.0%,nt,-44%,-16%,nt
COc1cccc(OCC(O)CN2CCOCC2)c1 (configuration not stated),?,3%,-5%,6.5%,-4%,4%,2%,-13%
O=C(OCC(=O)N1CCCC1=O)c1cc(Cl)ccc1O,13%,nt,18%,nt,16µM*,nt,nt,?
N#CCSc1nc(-c2ccccc2)c2cc(Cl)ccc2n1,1%,-1%,-23%,-9.7%,3%,2%,-9%,-4%
Cc1ccc(NC(=O)CSc2nnc(Cn3cnc4ccccc43)o2)c(C)c1,0%,9%,10%,5.0%,15%,?,-5%,?
Cc1cc2[nH]c(=O)cc(-c3ccccc3)n2n1,nt,9%,29%,nt,-6%,47%,nt,nt
Cc1cc(C)cc(NC(=O)c2cc(S(=O)(=O)N3CCOCC3)cn2C)c1,nt,nt,-12%,-2.9%,nt,nt,-8%,-1%[46.1 µM]
O=C(COC(=O)c1ccc([N+](=O)[O-])s1)NC(=O)NCc1ccccc1,-1%[46.1 µM],-10%,-2%,nt,11%,nt,nt,-6%[46.1 µM]
CC(OC(=O)CSc1ccc([N+](=O)[O-])cc1)C(=O)NC1CC1 (configuration not stated),2%,1%,-15%,nt,20%,nt,nt,4%
CCN(CC)C(=O)CN1C(=O)C2(NC(=O)c3ccccc3N2)c2ccccc21 (configuration not stated),nt,0%,-8%,nt,-9%,-11%,nt,nt
Oc1ccc(/C=N/Nc2ccnc3cc(Cl)ccc23)cc1O,nt,1%,-3%,nt,5%,-41%,nt,nt
CCOC(=O)C1=C(O)/C(=C/c2ccc(OCC(=O)Nc3ccc(C)cc3)cc2)N=C1C,nt,-1%,-22%,nt,-3%,12%,nt,nt
O=C(C1Cc2ccccc2O1)N1CCCCC1 (configuration not stated),-2%,0%,22%,-1.0%,-8%,-7%,7%,27%
O=C(NCc1ccncc1)C(=O)NC1CC1,16%[46.1 µM],-7%,3%,nt,-27%,nt,nt,9%
CCCOc1c(OC)cccc1C1CC(=O)Nc2cc3c(cc21)OCCO3 (configuration not stated),?,-17%,0%,-5.8%,40%,-14%,6%,?
CCCOc1ccccc1Cn1c(=O)sc2ccccc21,9%[46.1 µM],nt,-19%,-3.7%,nt,nt,-17%,0%[46.1 µM]
CCCOc1ccc(OCCSc2ncccn2)cc1,-24%[46.1 µM],-6%,26%,-6.8%,?,-9%,12%,?
CC(NC(=O)c1ccco1)C(c1cccs1)N1CCOCC1 (configuration not stated),nt,4%,28%,8.5%,-2%,-1%,-6%,nt
Cc1nc2ccc([N+](=O)[O-])cc2c(=O)n1Cc1ccc(F)cc1,-8%,6%,-22%,nt,-4%,25%,nt,-4%
COC(=O)c1ccc([C@H]2CC(=O)O2)cc1,nt,0%,-23%,nt,-17%,-1%,nt,nt

# (more compounds)
SMILES,Marburg entry inh,SARS PLpro yeast,2A StopGo,Cruzain inh Det,RE007 growth inh,NS1 inh,Cruzain noTriton,LASV entry inh
O=C(NCc1ccco1)C1CCN(S(=O)(=O)c2cccc([N+](=O)[O-])c2)CC1,16%[46.1 µM],-2%,0%,nt,9%,4%,nt,20%[46.1 µM]
COc1ccc(/C=C/C(=O)N2CCN(S(=O)(=O)/C=C/c3ccccc3)CC2)cc1OC,8%,-1%,-20%,-19%,13%,10%,1%,-12%
COc1ccc2cc(Br)ccc2c1CC(=O)NCC1CCCO1 (configuration not stated),nt,0%,-11%,nt,-19%,-6%,nt,nt
Cc1oc(-c2cccc(Cl)c2)nc1CN1CCC(C(=O)NCCCN2CC(C)CC(C)C2)CC1 (configuration not stated),nt,-1%,-29%,nt,-10%,3%,nt,nt
Cc1cc(SCC(=O)Nc2ccccc2C)nc(C)n1,7%,2%,2%,0.2%,3%,3%,5%,?
O=[N+]([O-])c1cccc(S(=O)(=O)NCCCN2CCOCC2)c1,?,6%,-7%,-0.3%,-5%,?,3%,3%
O=C(NCCS(=O)(=O)N1CCc2ccccc2C1)c1ccccc1,-6%,4%,0%,nt,10%,nt,nt,2%[46.1 µM]
CCOC(=O)c1sc2nc(C(C)C)c3c(c2c1N)CCC3,-18%,18%,-3%,32%[activator],-5%,3%,9%,-1%
Cc1ccc(C)c(CN2CCC(CNC(=O)Nc3ccc(F)c(Cl)c3)CC2)c1,?,1%,?,nt,-3%,-2%,nt,-22%
CCOC(=O)C1CCCN(C(=O)Cn2ncc3c(C)n(Cc4ccccc4F)c(C)c3c2=O)C1 (configuration not stated),-1%[46.1 µM],nt,?,-4.2%,nt,nt,10%,-2%[46.1 µM]
COC(=O)c1c(C)c(C)nc(N)c1C#N,-7%,8%,-24%,?,9%,1%,-9%,1%
CN(Cc1ccccc1)C(=O)COC(=O)c1cc(Cl)nc(Cl)c1,0%[46.1 µM],1%,-12%,nt,3%,nt,nt,-1%
CC(=O)N(Cc1ccc(Cl)cc1)c1cnccn1,nt,0%,?,nt,7%,0%,nt,nt
O=C(CCCCC(=O)Nc1ccccc1)Nc1ccccc1,nt,2%,-11%,nt,11%,17%,nt,nt
CCCNC(=O)N1CCC(C(=O)c2ccc(F)cc2)CC1,-15%,3%,-12%,0.0%,9%,-7%,-2%,-15%
COc1cc(OC)cc(C(=O)Nc2ccc(-c3nc4ccccc4o3)cc2)c1,?,3%,?,-4.8%,4%,-51%,?,-16%
Cc1cc(C)c(NC(=O)C(C)n2nc(C)c3sc4ccccc4c3c2=O)c(C)c1 (configuration not stated),?,nt,-8%,-2.9%,nt,nt,-9%,-3%[46.1 µM]
Cn1c(=O)n(C)c2cc(S(=O)(=O)Nc3ccc(F)cc3)ccc21,-5%,-4%,3%,nt,3%,-1%,nt,-27%

# Bioassay records from PubChem BioAssay.
